# High-throughput results: PubChem, Johns Hopkins Ion Channel Center
# KCNQ2 pot: potentiators of rat KCNQ2 potassium channel; CHO-K1 KCNQ2, FluxOR thallium flux fluorescence; hits give high values; B-score at 10 µM; actives 0.54% (n = 310,000);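 active means fluorescence ratio B-score at least 3 SD of library B-scores, with initial fluorescence B-score within 3 SD, cut at about 5.3 in these data; same plate scores as AID 2156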;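 further: B-score of peak minus minimum over baseline fluorescence ratio after K+ and Tl+ stimulus; positive B-score means potentiation of KCNQ2 with more thallium influx and brighter signal; only the inactives scoring about 0 or higher are listed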
# Target sequence (O88943 whole entry, looked up): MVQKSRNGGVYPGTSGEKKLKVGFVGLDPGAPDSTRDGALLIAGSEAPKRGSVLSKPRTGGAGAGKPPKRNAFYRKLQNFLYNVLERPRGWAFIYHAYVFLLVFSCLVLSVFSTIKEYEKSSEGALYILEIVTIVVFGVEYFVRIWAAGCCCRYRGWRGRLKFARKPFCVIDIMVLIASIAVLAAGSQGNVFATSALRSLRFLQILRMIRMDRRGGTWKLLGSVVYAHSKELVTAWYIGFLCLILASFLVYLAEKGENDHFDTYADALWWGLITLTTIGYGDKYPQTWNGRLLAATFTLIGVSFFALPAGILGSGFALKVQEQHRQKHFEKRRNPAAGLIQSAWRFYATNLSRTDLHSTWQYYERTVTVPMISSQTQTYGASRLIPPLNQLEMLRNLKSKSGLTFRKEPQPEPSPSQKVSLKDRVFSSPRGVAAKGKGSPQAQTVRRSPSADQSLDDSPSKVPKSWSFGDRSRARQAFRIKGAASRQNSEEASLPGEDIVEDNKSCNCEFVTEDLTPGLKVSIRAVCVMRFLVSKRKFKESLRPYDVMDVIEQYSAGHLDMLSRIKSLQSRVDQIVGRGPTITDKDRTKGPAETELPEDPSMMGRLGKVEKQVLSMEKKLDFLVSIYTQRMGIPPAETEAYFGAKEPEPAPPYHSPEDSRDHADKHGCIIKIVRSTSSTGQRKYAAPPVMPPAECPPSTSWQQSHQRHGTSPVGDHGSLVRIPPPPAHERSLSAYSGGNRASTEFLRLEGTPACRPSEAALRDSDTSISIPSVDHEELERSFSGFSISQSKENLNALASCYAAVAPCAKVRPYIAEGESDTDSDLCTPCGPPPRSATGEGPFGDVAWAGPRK
# KCNQ2 pot baseline: second read-out of KCNQ2 pot, no call of its own (marks repeat the call); B-score; compound at 10 µM; measured here: initial fluorescence intensity artifact check;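 brightness before thallium and not channel activity; 0 = typical well and far values either way flag optical interference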
# The depositor's hits bear a star; x = not tested or not shown.
KCNQ2 pot | KCNQ2 pot baseline | Compound
0.13 | 0.47 | CCSc1nnc(NC(=O)CSc2nc3c(c(=O)n2-c2ccccc2)SCC3)s1
0.5 | -2.1 | Cc1ccc(N2CCN(C(=O)CNS(=O)(=O)c3ccc(Br)s3)CC2C)cc1 (stereo not drawn)
0.05 | -0.34 | Cc1c(-c2ccnc3cc(C(=O)O)nn23)cnn1C
2 | -0.08 | CCn1c(=O)c(CCC(=O)N2CCOCC2)c(C)c2c(C)nn(-c3ccccc3)c21
1.3 | 0.15 | CC1CCCCN1C(=O)c1cc(-c2ccc(Cl)c(Cl)c2)on1 (stereo not drawn)
0.15 | 0.05 | O=C(Cc1c(O)c2ccccc2[nH]c1=O)NC1CCCCCC1
0.12 | -1.9 | Cc1ccc(C=Nc2ccccc2C(N)=O)cc1
0.31 | -0.47 | CCOc1ccc(CN2CCSCC2)cc1
1.5 | 0.02 | COCCn1c(C(C)C)nc2oc3ccccc3c(=O)c2c1=O
0.06 | 0.2 | CN1CCN(C(=O)CSc2nc(-c3ccncc3)ccc2C#N)CC1
0.05 | 1.1 | C=CCc1cc(Cl)ccc1OCCOCCNCCOC
0.03 | 2 | Cn1c(=O)c2c(nc(N3CCOCC3)n2CCCNC2=NCCC2)n(C)c1=O
2.3 | 0.03 | COc1ccc(NC(C)=O)cc1NC(=O)CCn1c(=O)sc2ccccc21
0.72 | 0.3 | COc1ccc(Br)cc1CN1C(=O)NC2(CCCCCC2)C1=O
0.95 | -0.43 | C=CCCCCc1nc2ccccc2c(=O)n1N
0.52 | 1.4 | COc1cc(NC(=O)c2cccs2)c(C(=O)OCC(=O)c2cc(C)n(-c3ccc(F)cc3)c2C)cc1OC
0.72 | 0.01 | CC(=O)c1c(C)[n+]([O-])c2ccc3c(non3O)c12
0.17 | 0.77 | COc1ccc(CN(C)C(=O)Cn2ccsc2=N)cc1OC
0.94 | -1.3 | C/C(=C/c1ccccc1)C(=O)N1CC(C)OC(C)C1 (stereo not drawn)
0.15 | -0.03 | CCOC(=O)c1c(C)[nH]c(C)c1C(=O)COC(=O)/C=C/c1ccc(OC(F)F)cc1
0.71 | 0.94 | NS(=O)(=O)c1ccc(NC(=S)NC2CCCCCC2)cc1
1.4 | -2.1 | CCc1cccc(NC(=O)CCS(=O)(=O)c2cccc3nonc23)c1
0.89 | -0.11 | CCOc1ccc(Cn2c(=O)oc3ccc(C)cc32)cc1OC
0.6 | 1.2 | Cn1cc(Cl)c(C(=O)OCC(=O)Nc2ccc(S(N)(=O)=O)cc2)n1
1.1 | -0.27 | O=C(O)c1cccc(S(=O)(=O)Nc2ccc(S(=O)(=O)N3CCOCC3)cc2)c1

# The results go on.
KCNQ2 pot | KCNQ2 pot baseline | Compound
1.9 | -0.58 | CCN(CC(=O)NC1CCS(=O)(=O)C1)S(=O)(=O)c1ccc(C)c(C)c1 (stereo not drawn)
0.16 | -0.75 | CN(C)c1ccc(N=Cc2nc(-c3ccccc3)oc2OC(=O)c2ccccc2)cc1
0.04 | -0.15 | O=C(c1ccccc1)c1cc2ccccc2oc1=O
0.87 | -0.66 | CCc1ccc2[nH]c(=O)c(CN(CCCO)C(=O)NCc3ccccc3)cc2c1
0.36 | -0.56 | CC1(OC(=O)CCc2ccccc2)C(=O)C=C2C=C(c3ccc(C#N)cc3)N(C(CO)CO)C=C2C1=O (stereo not drawn)
0.2 | 0.56 | CCN1CCN(CC(=O)N/N=C/c2cc(Br)cs2)CC1
0.94 | 2.1 | CC(NS(=O)(=O)c1ccc(OCC(=O)N2CCCC2)cc1)c1ccccc1 (stereo not drawn)
1.2 | -0.14 | O=C(COC(=O)c1ccco1)NCc1ccc2c(c1)OCO2
0.28 | 0.24 | O=C(Nc1cccc(-c2ccc(N3CCOCC3)nn2)c1)c1ccc([N+](=O)[O-])cc1
1.8 | -1.8 | CCOc1ccc(OCCC(=O)OCC(=O)NC2CCCCC2)cc1
0.72 | 0.88 | Cc1cc(C)c(Cn2ncn(-c3ccc(Br)cc3)c2=O)c(C)c1
1.2 | -0.06 | O=C(CCSCCC(=O)NCc1ccc(F)cc1)NCc1ccc(F)cc1
2.5 | 2.8 | C=CCSC(=S)Nc1c(C)n(C)n(-c2ccccc2)c1=O
0.02 | 1.7 | O=C(O)[C@@H]1CCCN1S(=O)(=O)c1cccc(S(=O)(=O)N2CCC[C@H]2C(=O)O)c1
0.98 | -0.03 | CCCC(NC(=O)Cc1c(C)c2cc3c(C)c(C)oc3c(C)c2oc1=O)C(=O)N[C@@H](Cc1ccccc1)C(=O)O (stereo partly drawn)
0.19 | -0.26 | OCC1(Cc2ccccc2)CCN(Cc2cccc(F)c2F)CC1
0.11 | 0.03 | Cc1ccc2nc(NCCC(=O)O)nc(-c3ccccc3)c2c1
0.02 | -1.2 | O=C(NCC(c1cccnc1)N1CCN(c2ccc(F)cc2)CC1)c1ccco1 (stereo not drawn)
1.3 | 2.7 | Cc1cccc(NC(=O)Cn2c([N+](=O)[O-])cnc2C)c1C
0.67 | -0.25 | O=S(=O)(c1ccc(NC(=S)N2CCN(c3ccc(O)cc3)CC2)cc1)N1CCOCC1
0.04 | -0.46 | Cc1ccc(S(=O)(=O)NC(CC(C)C)C(=O)Nc2ccncc2)cc1 (stereo not drawn)
1.2 | -0.19 | O=C(Nc1ccccc1)OCc1cncs1
1.6 | 1.2 | Cc1cc(C)cc(NC(=O)N2CCC(NC(=O)c3ccccc3C)CC2)c1
0.23 | 0 | Cc1cccc(OCCOCCN2CCOCC2)c1C
1.1 | 0.53 | O=C1CC(c2ccc(Cl)c(Cl)c2)CC(O)=C1C=NCCN1CCNCC1 (stereo not drawn)

# (list continues)
KCNQ2 pot | KCNQ2 pot baseline | Compound
2.1 | -0.8 | O=C(N/N=C\c1cccc(F)c1)c1ccc(Cn2cc(Br)c([N+](=O)[O-])n2)o1
0.06 | 0.84 | S=c1[nH]nc(-c2cccnc2)n1/N=C/c1ccccc1
0.17 | -1.4 | CC(C)Cc1ccc(C(=O)Nc2ccc(Cc3ccncc3)cc2)o1
1.8 | -0.68 | CC(C)C(=O)c1cn(CC(=O)O)c2ccccc12
0.44 | 2.1 | Cn1c(N)c(C(=O)COC(=O)c2ccccn2)c(=O)n(C)c1=O
0.59 | 0.51 | N/C(=N\OC(=O)C1CCCCC1)c1cccc([N+](=O)[O-])c1
0.07 | -0.85 | CCOc1ccccc1C1CC(=O)NC2=C1C(=O)CCC2 (stereo not drawn)
3.3 | -0.69 | Cc1ccc(NC(=O)C2CCCN(S(=O)(=O)c3c(C)noc3/C=C/N(C)C)C2)c(C)c1 (stereo not drawn)
0.1 | -0.4 | CC(C)[C@@H](C(=O)N1CCCC1)N1C(=O)N2CCc3c([nH]c4ccccc34)[C@@]2(C)C1=O
0.57 | -1.7 | COc1ccccc1C(=O)NCCC(=O)NCC(c1ccccc1)N(C)C (stereo not drawn)
0.42 | 0.68 | CCOC(=O)c1c(C)[nH]c(C=C2C(=O)CCCC2=O)c1O
0.19 | 1.2 | CC(C)=CCCC(C)CN1CCC(n2nccc2NC(=O)c2ccccc2)CC1 (stereo not drawn)
1.2 | 0 | Cc1nonc1NC(=O)CSc1nc2ccccc2o1
0.83 | -0.01 | Cc1cc(C(=O)Nc2ccc3[nH]ccc3c2)no1
0.36 | -1.6 | Cc1ccc(CC(=O)Nc2nccs2)cc1C
0.37 | 0 | Cc1ccc(O)c(C2=NOC(O)(C(F)(F)F)C2)c1 (stereo not drawn)
0.01 | 0.21 | Cc1ccccc1NC(=O)CSc1nnc(-c2ccccn2)o1
0.92 | 0.21 | Clc1ccc(-c2csc3ncnc(Cl)c23)cc1
0.28 | -1.3 | CC(=O)N1CCN(c2nc3cc4c(cc3nc2NS(=O)(=O)c2ccccc2)OCCO4)CC1
0.4 | 0.02 | Cc1ccccc1NC(=O)C1CC(=O)n2ncnc2N1 (stereo not drawn)
0.02 | -0.46 | FC(F)(F)c1nnc2ccc(N3CCCC3)nn12
1.8 | 0.7 | CCOC(=O)CSc1ccc2nnc(-c3ccncc3)n2n1
7* | -0.62* | COc1cc(C)c(C(=O)Oc2cc(C)c(C(=O)O)c(O)c2)c(O)c1
2.1 | -0.26 | C=CCC1(C(=O)NCCO)CCN(C(=O)OC(C)(C)C)CC1
0.78 | 0 | O=C(Nc1nc2c(Cl)cccc2s1)c1ccc([N+](=O)[O-])o1

# Following part.
KCNQ2 pot | KCNQ2 pot baseline | Compound
0.39 | -1.8 | NC(=O)CC(NC(=O)c1cccc(Br)c1)c1ccc(NC2CCCCCCC2)c([N+](=O)[O-])c1 (stereo not drawn)
1.7 | -0.63 | O=C(COC(=O)CC1Sc2ccccc2NC1=O)NCc1ccccc1 (stereo not drawn)
2.5 | 0.13 | CCOC(=O)CN1C(=O)C(O)(CC(=O)c2ccc3c(c2)CCCC3)c2ccccc21 (stereo not drawn)
0.56 | -0.09 | O=C(CC1SC(=O)N(Cc2ccccc2)C1=O)Nc1nccs1 (stereo not drawn)
0.94 | 0.45 | COc1ccccc1OCCC(=O)O
0.63 | 3.2 | CCc1ccc(NC(=O)CCNS(=O)(=O)c2cccs2)cc1
0.64 | 0.18 | CCOC(=O)C1CCCN(S(=O)(=O)c2ccc(NC(C)=O)cc2)C1 (stereo not drawn)
0.13 | -1.5 | CC(=O)Cn1cnc2c(cnn2-c2ccc(C)c(C)c2)c1=O
0.48 | -2.3 | Cc1cc(C)nc(NC(=O)c2cnc3sccn3c2=O)n1
0.44 | 0.02 | O=C(c1ccco1)N1CCc2ccccc21
2.2 | 0.61 | CS(=O)(=O)c1cccc(S(=O)(=O)N2CCCCCC2)c1
0.82 | -1.2 | COc1cccc(C(=O)Cn2c(Br)nc3c2c(=O)n(C)c(=O)n3C)c1
0.24 | -0.07 | C=CCOc1nc(N(C)C)nc(N(C)C)n1
0.46 | 0.09 | COC(=O)c1cc(S(=O)(=O)NCC2CCN(Cc3ccc(C)cc3)CC2)cn1C
-5.5 | x | COc1cccc(/C=N/N2CCN(c3ccccc3OC)CC2)c1
0.29 | 0.08 | Cc1ccc(C(=O)Nc2nc(-c3cc(Cl)sc3Cl)cs2)cc1
2.3 | -0.01 | Cc1ccc(C(=O)O/N=C/c2ccc(N(C)C)cc2)cc1
1.2 | -0.54 | C/C(=N\NC(=O)CC#N)c1ccc(Oc2ccccc2)cc1
1 | -2.4 | COc1cc(/C=N/NC(=O)COc2ccc(-n3cnnn3)cc2)ccc1OCC(N)=O
2 | -0.02 | CCc1cc2c(=O)n(-c3ccccc3)c(SCC(N)=O)nc2s1
0.16 | -0.01 | Cc1cc(F)ccc1NC(=O)C1CCCO1 (stereo not drawn)
0.81 | 0.59 | N#Cc1cc(NC2CCCC2)c([N+](=O)[O-])cc1C#N
0.15 | -1.9 | CCOC(=O)N1CCN(Cc2nc3c(c(=O)n(C)c(=O)n3C)n2Cc2cccc(C)c2)CC1
0.68 | 1.2 | CCOC(=O)c1ccc(NC(=O)c2c(N)n(C)c(=O)[nH]c2=O)cc1
0.8 | -0.77 | O=C(Nc1ccccc1Cl)NC1(C(=O)NCC2CCCO2)CCCCC1 (stereo not drawn)

# The results go on.
KCNQ2 pot | KCNQ2 pot baseline | Compound
0.07 | -0.04 | C/C=C(\C)C(=O)NCCN1C2=NC[C@@H](Cc3ccccc3)N2C[C@H]1Cc1ccc(O)cc1
0.02 | 0.39 | COc1cc(NC(=O)C2CCN(S(=O)(=O)c3ccc(N4CCCC4=O)cc3)CC2)cc(OC)c1
0.57 | -0.45 | O=C(CN1CCCC1)Nc1ccc(Oc2ccc(NC(=O)CN3CCCC3)cc2)cc1
0.09 | 0.78 | Cc1nc2ccc(Br)cc2c2c1CC(CBr)O2 (stereo not drawn)
0.89 | 0.34 | CN(/N=C/c1cc(Cl)ccc1O)C1=NS(=O)(=O)c2ccccc21
1.9 | -0.76 | COc1ccc(-c2cc3n(n2)CCc2nc4ccccc4n2-3)cc1
1.1 | 0 | Cc1ccc(S(=O)(=O)CCC(=O)Nc2cccc([N+](=O)[O-])c2)cc1
0.94 | 0.76 | Cc1ccc(NC2=NC(c3ccc(F)cc3)n3c(nc(C)cc3=O)N2)cc1 (stereo not drawn)
2.5 | -0.72 | CCN(CC)S(=O)(=O)c1c(OC)cc(C)c(Cl)c1C
0.74 | 0.98 | O=C(N1CCCCC1)N1CCN(S(=O)(=O)c2ccc(Cl)cc2)CC1
0.22 | -1.9 | COc1cccc(-n2cc(CNCc3c(C(=O)N(C)C)nc4ccc(Cl)cn34)cn2)c1
0.44 | 1.7 | C[C@@H]1C[C@@H]2OC(=O)[C@]3(C)[C@H]2[C@@H](OC3(C)O)[C@]2(C)C(=O)C=C[C@H]12 (stereo partly drawn)
0.36 | -2.2 | O=C(Cn1cnc2c(cnn2-c2ccccc2)c1=O)Nc1cc(S(=O)(=O)N2CCOCC2)ccc1Cl
0.58 | 1.6 | COc1cccc(CNC(=O)CCn2c(=O)c3cccn3c3cccnc32)c1
0.6 | 0.75 | Cc1c(CN2CCC(n3nccc3NC(=O)C3CC3)CC2)[nH]c2ccccc12
0.07 | 0.51 | CCN(C(=O)N1CCOCC1)c1ccccc1C
0.41 | 0.58 | O=C1CCCN1CCC1CCN(C(=O)Nc2ccccc2)CC1

# An excerpt; the hit share may differ from the screen's.
